# TRPML1 ag – agonists of human TRPML1 channel; activation, % (no concentration beside the values); AID 624414; TRPML1-expressing cells, Ca2+ dye fluorescence, FDSS; host cell line not named in the record; reference of the full effect not given here; 410,000 tested, 0.12% active; in the data active = activation above about 50%; inconclusive = about 30% to 50%; inactive = below about 30%; note: 0% is about no effect; the text of the record puts the active cut at 80%
# Target sequence (Q9GZU1 whole entry, looked up): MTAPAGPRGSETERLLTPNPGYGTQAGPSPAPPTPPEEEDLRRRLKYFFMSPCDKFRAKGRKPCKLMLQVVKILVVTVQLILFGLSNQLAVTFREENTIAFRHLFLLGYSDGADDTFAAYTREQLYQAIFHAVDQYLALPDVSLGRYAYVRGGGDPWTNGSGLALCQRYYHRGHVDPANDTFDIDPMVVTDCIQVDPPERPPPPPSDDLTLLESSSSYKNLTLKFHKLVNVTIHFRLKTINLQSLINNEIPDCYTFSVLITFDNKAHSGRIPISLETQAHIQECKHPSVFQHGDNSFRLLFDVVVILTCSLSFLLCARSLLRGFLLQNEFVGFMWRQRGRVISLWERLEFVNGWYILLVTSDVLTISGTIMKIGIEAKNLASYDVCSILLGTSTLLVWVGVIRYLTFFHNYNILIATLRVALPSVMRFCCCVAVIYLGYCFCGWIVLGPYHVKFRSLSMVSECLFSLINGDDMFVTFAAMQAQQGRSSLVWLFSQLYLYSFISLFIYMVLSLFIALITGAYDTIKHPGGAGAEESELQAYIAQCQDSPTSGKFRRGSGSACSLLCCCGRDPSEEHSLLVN
#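 Tet-induced TRPML1-DL cells, 1,500 per well, cultured overnight, were loaded with a no-wash Ca2+ dye for 45–90 min. Calcium fluorescence was recorded on the FDSS for 110 s after compound addition, before the EC80 agonist (4 uM 54-4) was added.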
# PINK1 modulator – PINK1 expression modulation. 410,000 tested, 0.2% active. PINK1 immunofluorescence, high-content cytometry, 24 h. Potency, µM (series often up to 76.6 µM), without a hit: at the top dose activation (PINK1 increase), usual class: activators; active = well fitted activation curve with a large enough effect; inconclusive = small, poorly fitted or top-dose-only effect; inactive = flat fitted curve, though single readings scatter; cell line not stated here;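 note: potency is the fitted concentration of half-maximal effect; % of control where 0% means no effect; nearly all actives have a fitted effect of over 65% in size; a mitochondrial uncoupler was the plate control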
#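 Readout is PINK1 immunofluorescence, quantified alongside mitochondrial, cell and nuclear markers by laser-scanning microplate cytometry. Cells from a stable line were exposed to compound titrations (5 concentrations) for 24 hours, with CCCP controls.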
# * hit, by the source's call; ? = inconclusive.
SMILES,TRPML1 ag,PINK1 modulator
COc1ccc(S(=O)(=O)N2CCN(c3nc(-c4ccccc4)nc4ccccc34)CC2)cc1,-0.3,0.9%
CCn1c(=O)c2cc(C(=O)Nc3cccc(C(F)(F)F)c3)sc2c2ccccc21,-0.3,2.2%
COc1ccc(NC(=O)Cn2ccn(Cc3ccccc3)c(=O)c2=O)cc1Cl,1.2,0.2%
Cc1ccc(-n2ncc(C(=O)NCCN3CCN(C)CC3)c2C2CCN(C(=O)OC(C)(C)C)CC2)cc1,-0.2,-0.7%
Cn1cnc(S(=O)(=O)N2CCC(C(=O)NCc3ccc(Cl)cc3)CC2)c1,2.1,-0.6%
COc1cccc(CNC(=O)CN2N=C(c3ccc(C)cc3)CCC2=O)c1,-0.7,-0.6%
CCN(c1cccc(C)c1)S(=O)(=O)c1nnc(NC(=O)c2cccs2)s1,1.2,-0.1%
Cc1ccc(S(=O)Cc2ccc(C(=O)NC3CCCCCC3)o2)cc1 (stereo not drawn),-1.3,0.4%
O=C(CCCCCn1c(=O)[nH]c2ccccc2c1=O)N1CCN(c2cccc(C(F)(F)F)c2)CC1,1.2,2.0%
COc1ccc(/C=C/c2nc(C#N)c(N3CCCCC3)o2)cc1OC,0.2,-0.6%
O=C(Cc1ccccc1)NCC(=O)OCC(=O)c1cccc2ccccc12,-0.8,2.6%
CCOc1ccc(NC(=O)CSc2nc(=O)[nH]c3c2CCC3)cc1,-0.4,1.2%
COc1ccc(CNC(=O)C(=O)NCC(c2cccs2)S(=O)(=O)c2ccc(F)cc2)cc1 (stereo not drawn),1.5,0.5%
Cc1ccccc1C(=O)OCc1cc(=O)n2nc(C3CC3)sc2n1,-0.9,-0.7%
COc1cccc(N2CC(NC(=O)c3cccc(OC)c3OC)CC2=O)c1 (stereo not drawn),-0.6,-0.6%
O=c1oc2c(CN3CCCC3)c(O)ccc2cc1-c1ccccc1,6.5,0.1%
CCOc1ccc(NC(=O)C2CCN(S(=O)(=O)c3ccc4c(c3)oc(=O)n4C)CC2)cc1,-0.6,0.7%
O=S(=O)(Nc1ccc(O)c(Sc2nc3ccccc3s2)c1)c1cc(Cl)ccc1Cl,-0.7,4.2%
COC(=O)c1sccc1S(=O)(=O)N1CCN(c2ccccc2)CC1,-1.4,2.6%
CCc1ccc(S(=O)(=O)Nc2cccc(-c3ccc(N4CCCCC4)nn3)c2)s1,0.7,-0.8%
CCc1ccc2ncc3c(-c4ccc(C)cc4)nn(CC(=O)Nc4ccc(C)cc4)c3c2c1,0.3,8.4%
CCOC(=O)c1c(C)oc2ncnc(NCCc3ccccc3)c12,1.8,2.0%
Cc1ccc(-c2nn(-c3ccc(F)cc3F)c3c2cnc2ccc(F)cc23)cc1,-0.2,0.7%
CCCCCN1C(C(=O)c2ccccc2)=C(NC(=O)c2ccc(C)cc2)c2ccccc2S1(=O)=O,-0.8,1.0%
COCCNC(=O)C1CCN(C(=O)c2cc3sccc3n2Cc2ccc(Cl)cc2)CC1,2.3,0.1%

# Following part.
SMILES,TRPML1 ag,PINK1 modulator
COc1ccccc1NC(=O)C1=C(C)Nc2ncnn2C1c1ccc[nH]1 (stereo not drawn),0.4,5.4%
CCOc1ccccc1C(=O)Nc1ccc(S(=O)(=O)N(Cc2ccccc2)c2ccccc2)cc1,-0.6,3.3%
O=C(c1cccn1-c1nnc(N2CCCC2)s1)N1CCN(c2ccccc2)CC1,0.7,-1.3%
CC(O)COCC1OC2OC3C(COCC(C)O)OC(OC4C(COCC(C)O)OC(OC5C(COCC(C)O)OC(OC6C(COCC(C)O)OC(OC7C(COCC(C)O)OC(OC8C(COCC(C)O)OC(OC1C(OCC(C)O)C2OCC(C)O)C(OCC(C)O)C8OCC(C)O)C(OCC(C)O)C7OCC(C)O)C(OCC(C)O)C6OCC(C)O)C(OCC(C)O)C5OCC(C)O)C(OCC(C)O)C4OCC(C)O)C(OCC(C)O)C3OCC(C)O (stereo not drawn),0.0,0.1%
CCc1ccc(NC(=O)C2CCN(c3nn4cc(-c5ccc(OC)cc5)nc4s3)CC2)cc1,1.1,1.9%
COCCCNC(=O)c1oc2c(c1C)-c1nn(Cc3cccc(Cl)c3)cc1CC2,2.4,4.0%
COC(=O)c1cccc(CN2C(=O)SC(Nc3ccc(Br)cc3)C2=O)c1 (stereo not drawn),1.0,-1.2%
Cc1ccc(CSc2nc3cccnc3n2Cc2nc(-c3ccccc3F)oc2C)cc1,0.6,3.4%
Cc1c(C(=O)Nc2ccc(F)c(F)c2)oc2ccc(S(=O)(=O)N3CCC4(CC3)OCCO4)cc12,1.1,2.1%
N#Cc1ccc(C(=O)N(Cc2ccco2)Cc2cccs2)cc1,-0.9,0.2%
COc1ccccc1N1CCN(c2nc3c(S(=O)(=O)c4ccccc4)nnn3c3ccc(Cl)cc23)CC1,-1.1,-0.7%
COc1ccc(-c2cn3c(n2)sc2cc(C(=O)NC4CCCCCC4)ccc23)cc1,1.3,1.8%
Cc1ccc(-c2cn3c(n2)sc2cc(C(=O)NCCC4=CCCCC4)ccc23)c(C)c1,-0.3,-0.1%
CCc1cccc(C)c1NC(=O)Cn1nc(C)c2nn(-c3ccc(Cl)cc3)c(C)c2c1=O,0.6,0.2%
COc1ccccc1NC(=O)CSc1nnc(N)s1,1.1,1.8%
NC1=NC(c2cccc(Cl)c2)n2c(nc3ccccc32)N1 (stereo not drawn),0.5,1.6%
O=C(c1ccc2c(c1)N(Cc1ccccc1)C(=O)c1ccccc1S2(=O)=O)N1CCOCC1,-0.5,-0.4%
Cc1cc(NC(=O)C2CCCN(S(=O)(=O)c3cccc4nonc34)C2)ccc1Br (stereo not drawn),1.5,7.5%
COc1ccc(OCc2nc(-c3ccc(OC)c(OC)c3)no2)cc1,-0.4,1.0%
COc1cc(N(C)C)c(OC)cc1C=C1C=CC=C1,-1.1,1.3%
Cc1ccc2c(c1)N(C(=O)N1CCC(C(=O)NCCc3ccc(Cl)cc3)CC1)CC(C)O2 (stereo not drawn),-0.4,-0.4%
CNCCN(C)c1nc(-c2cccs2)nc2ccccc12,0.0,-0.3%
O=C(Nc1cccc(OCc2cc(=O)n3ccccc3n2)c1)Nc1cccc(C(F)(F)F)c1,0.2,19%
COc1cccc(C(c2sc3nc(-c4ccco4)nn3c2O)N2CCN(C)CC2)c1 (stereo not drawn),4.4,-0.6%
Cc1ccc(Cl)cc1NC(=O)c1cnn2c(C(F)F)cc(-c3ccccc3)nc12,0.0,1.0%

# More records
SMILES,TRPML1 ag,PINK1 modulator
Cc1cc(C)c2c(NC(=O)c3ccccc3)c(C(=O)Nc3ccc(F)cc3)sc2n1,0.6,0.5%
CN(C)CCNC(=O)Cc1ccc(NC(=O)N2CCCCc3ccccc32)cc1,-1.0,-1.9%
Cc1ccc(F)cc1NC(=O)CCc1c(C)nn(-c2ccc(N3CCOCC3)nn2)c1C,-0.2,12%
Cc1cccc(OCC(=O)N(Cc2cccc(Cl)c2)Cc2ccco2)c1C,2.6,0.4%
COc1ccc(NC(=O)Cn2c(=O)n(CC3CCCO3)c(=O)c3ccccc32)cc1 (stereo not drawn),-0.8,1.4%
CCOC(=O)Cc1ccc(NC(=O)N2CCSc3ccccc32)cc1,1.5,-1.1%
COc1ccc(S(=O)(=O)N2CCC(C(=O)NC(C)c3ccccc3)CC2)cc1 (stereo not drawn),-0.9,0.0%
Cc1cccc(Cn2c(=O)n(-c3ccccc3C)c(=O)c3c2c2cc(C)ccc2n3C)c1,0.0,1.3%
COc1ccc2c(c1)c(=O)c(C(=O)c1ccc(C)c(C)c1)cn2CC(=O)Nc1ccc2c(c1)OCCO2,-0.6,2.8%
COc1cc(C(c2c(C)[nH][nH]c2=O)c2c(C)[nH][nH]c2=O)ccc1OC(=O)c1ccccc1OC,1.4,-1.5%
COc1ccc(C(=O)NCC(c2cccnc2)N2CCN(c3ccccc3)CC2)cc1 (stereo not drawn),0.7,0.6%
Cc1ccc(CNC(=O)CSc2c(C)cnc3c2c(=O)n(C)c(=O)n3C)cc1,-0.6,-0.1%
CCCCn1cc(S(=O)(=O)c2ccc(F)cc2)c(=O)c2ccccc21,-0.7,-1.3%
CCOC(=O)Cn1c(=O)cc(C)c2c(C)nn(-c3cccc(F)c3)c21,1.8,1.4%
CCCN1CNc2c(c(=O)[nH]c(=S)n2CCc2ccc(C)cc2)C1,-0.5,0.7%
CCN(CC)CCNC(=O)Nc1ccc2c(c1)N(Cc1ccccc1)C(=O)c1ccccc1S2,2.1,2.1%
CCOC(=O)Cn1nc(C)c(NC(=O)COc2ccc(Cl)cc2C)c1C,0.7,0.6%
COc1ccc(C)cc1NCc1nnc2n1CCCCC2,1.4,-5.2%
COc1ccc(-c2n[nH]c3c2cnc2ccc(F)cc23)cc1,0.2,0.6%
Cc1ccc2cccc(NC(=O)COc3ccccc3[N+](=O)[O-])c2n1,1.7,1.4%
CCNc1ccc(-c2nc(-c3ccncc3)no2)cc1[N+](=O)[O-],-0.1,14µM*
CCOc1ccc(NC(=O)c2cc(S(=O)(=O)N3CCCC3)c[nH]2)cc1,-0.7,-0.5%
Cc1cc(C)cc(NC(=O)N2CCN(C(=O)c3nsc4ccccc34)CC2)c1,2.4,-0.6%
CCc1ccccc1N(C)S(=O)(=O)c1ccc2[nH]cc(C(=O)NCCOC)c(=O)c2c1,0.6,-0.4%
CCOC(=O)c1nnn(C(CC)C(=O)Nc2c(C)cccc2C)c1C(=O)OCC (stereo not drawn),-0.2,0.0%

# Some of these compounds in order of formula weight, largest number first.
SMILES,TRPML1 ag,PINK1 modulator
COc1ccc2c(c1)c(=O)c(C(=O)c1ccc(C)c(C)c1)cn2CC(=O)Nc1ccc2c(c1)OCCO2,-0.6,2.8%
COc1cc(C(c2c(C)[nH][nH]c2=O)c2c(C)[nH][nH]c2=O)ccc1OC(=O)c1ccccc1OC,1.4,-1.5%
CCc1ccccc1N(C)S(=O)(=O)c1ccc2[nH]cc(C(=O)NCCOC)c(=O)c2c1,0.6,-0.4%
Cc1ccc(F)cc1NC(=O)CCc1c(C)nn(-c2ccc(N3CCOCC3)nn2)c1C,-0.2,12%
COc1ccc(C(=O)NCC(c2cccnc2)N2CCN(c3ccccc3)CC2)cc1 (stereo not drawn),0.7,0.6%
COc1ccc(NC(=O)Cn2c(=O)n(CC3CCCO3)c(=O)c3ccccc32)cc1 (stereo not drawn),-0.8,1.4%
COc1ccc(S(=O)(=O)N2CCC(C(=O)NC(C)c3ccccc3)CC2)cc1 (stereo not drawn),-0.9,0.0%
Cc1ccc(CNC(=O)CSc2c(C)cnc3c2c(=O)n(C)c(=O)n3C)cc1,-0.6,-0.1%
Cc1cc(C)cc(NC(=O)N2CCN(C(=O)c3nsc4ccccc34)CC2)c1,2.4,-0.6%
Cc1cccc(OCC(=O)N(Cc2cccc(Cl)c2)Cc2ccco2)c1C,2.6,0.4%
CCOC(=O)Cn1nc(C)c(NC(=O)COc2ccc(Cl)cc2C)c1C,0.7,0.6%
CCCCn1cc(S(=O)(=O)c2ccc(F)cc2)c(=O)c2ccccc21,-0.7,-1.3%

# (listing goes on)
SMILES,TRPML1 ag,PINK1 modulator
Cc1cc(N2CCC(C(=O)N(CC(C)C)CC(C)C)CC2)n2nc(C)c(-c3ccc(Cl)cc3)c2n1,-0.6,1.8%
COc1ccc(S(=O)(=O)c2c(Nc3c(C)cccc3C)sc(C(=O)c3ccc4c(c3)OCO4)c2N)cc1,2.5,3.3%
CSc1ccc(C2CC(=O)Oc3c2c(=O)n(C)c2ccccc32)cc1 (stereo not drawn),-0.7,3.3%
OCc1cc([C@@H](O)CNCCCCCCOCCCCc2ccccc2)ccc1O,-0.5,0.8%
COc1ccccc1C(=O)NCCn1cc(SCc2ccc(C)cc2)c2ccccc21,0.4,0.9%
Cc1c(NC(=O)c2nc3ccccc3nc2N2CCCCC2)cccc1[N+](=O)[O-],1.1,1.6%
N#C/C(=C\c1ccc(-c2ccc(F)cc2F)o1)c1nc2ccccc2[nH]1,?,22%
Cc1ccc2nc(N3CCC(C(=O)NCc4ccc(F)cc4)CC3)[nH]c2c1,0.8,0.0%
COc1cccc(Cn2c(=O)n(-c3ccc(Br)cc3F)c(=O)c3sc4ccccc4c32)c1,-0.4,1.4%
Cc1oc(-c2ccccc2F)nc1CSCC(=O)N1CCN(c2ccccc2)CC1,2.4,-0.8%
Cc1ccc(NC(=O)Cn2nnc(C(=O)NCc3ccc4c(c3)OCO4)c2N)cc1Cl,-0.1,?
CCN(CC)C(=O)c1ccc2c(c1)N(Cc1c(F)cccc1Cl)C(=O)c1ccccc1S2,1.1,2.4%
Cc1ccc(Cl)cc1N1CCN(CCNC(=O)Nc2ccccc2Cl)CC1,-0.3,0.0%
CCCN1CNc2c(c(=O)[nH]c(=S)n2CCc2ccc3c(c2)OCCO3)C1,-0.7,-0.7%
CCSc1oc(-c2ccc(F)cc2)nc1S(=O)(=O)c1ccc(C)cc1,0.7,0.7%
Cc1ccc(-c2nnc3ccccc3c2C(=O)Nc2ccc(C)c(F)c2)cc1,2.3,-0.1%
COc1ccccc1C(=O)CC1(O)C(=O)N(CC(N)=O)c2ccccc21 (stereo not drawn),-0.6,-0.3%
COc1cc(NS(=O)(=O)c2cccs2)cc(OC)c1,-1.5,1.2%
COc1ccc(C)cc1NC(=O)C1COc2ccccc2C1 (stereo not drawn),-0.7,-0.4%
CCOc1ccc(NC(=O)CSc2nccn2-c2cccc(C)c2C)cc1,3.0,-4.9%
O=C(NCc1cccc(Cl)c1)C1CCCN(c2ncnc3onc(-c4ccc(F)cc4)c23)C1 (stereo not drawn),3.2,0.3%
O=C(CN1c2ccc(Br)cc2-c2ccccc2S1(=O)=O)N1CCCCC1,0.6,-0.4%

# Bioassay records deposited in PubChem BioAssay by National Center for Advancing Translational Sciences (NCATS).

# The list is partial; the hit share may differ from the screen's.
